# Mtb betalactam – beta-lactam sensitization of Mtb H37Rv, H37Rv; M. tuberculosis H37Rv growth with meropenem, percent inhibition; hits of this screen are not shown here; inhibition, % at 25 µM; 330,000 tested, 0.27% active;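 active = about 74% or more and at least 40 points above the plate without the antibiotic, then above 30% in a dose series; inconclusive = first-round hits that could not be retested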;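 note: growth measured after seven days incubation then overnight dye step; 0% = bacteria only wells and 100% = bacteria with antibiotic; twin plates without the antibiotic show which effects depend on it; some results filed as inactive read as strong as hits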
# Mtb H37Rv – M. tuberculosis H37Rv growth inhibitors, H37Rv strain (AID 1626); M. tuberculosis H37Rv growth inhibition; higher % means a stronger effect; one-dose inhibition, % at 10 µM; IC50 in µM for titrated hits; 220,000 tested, 0.95% active;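 active = confirmed in a dose series; inconclusive = inhibition above 80% but not taken into the dose series; inactive = below 80% or under 30% at every dose of the series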;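 note: bacteria incubated seven days before Alamar blue readout; 0% = bacteria only wells and 100% = bacteria with antibiotic wells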
# RecA intein inh – Mtb RecA intein splicing inhibitors, primary screen, biochemical, fluorescence, HTS; Protein RecA (Mycobacterium tuberculosis (strain ATCC 25618 / H37Rv)), P9WHJ3; cell-free RecA intein splicing; inhibition, %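 (about 9 µM by stock and volumes)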; 290,000 tested, 0.75% active; in the data active = inhibition above about 30%; inconclusive = no clear call, values can overlap the other calls;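 note: 0% = vehicle wells and 100% = reference inhibitor control wells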
# Target sequence (P9WHJ3 whole entry, looked up): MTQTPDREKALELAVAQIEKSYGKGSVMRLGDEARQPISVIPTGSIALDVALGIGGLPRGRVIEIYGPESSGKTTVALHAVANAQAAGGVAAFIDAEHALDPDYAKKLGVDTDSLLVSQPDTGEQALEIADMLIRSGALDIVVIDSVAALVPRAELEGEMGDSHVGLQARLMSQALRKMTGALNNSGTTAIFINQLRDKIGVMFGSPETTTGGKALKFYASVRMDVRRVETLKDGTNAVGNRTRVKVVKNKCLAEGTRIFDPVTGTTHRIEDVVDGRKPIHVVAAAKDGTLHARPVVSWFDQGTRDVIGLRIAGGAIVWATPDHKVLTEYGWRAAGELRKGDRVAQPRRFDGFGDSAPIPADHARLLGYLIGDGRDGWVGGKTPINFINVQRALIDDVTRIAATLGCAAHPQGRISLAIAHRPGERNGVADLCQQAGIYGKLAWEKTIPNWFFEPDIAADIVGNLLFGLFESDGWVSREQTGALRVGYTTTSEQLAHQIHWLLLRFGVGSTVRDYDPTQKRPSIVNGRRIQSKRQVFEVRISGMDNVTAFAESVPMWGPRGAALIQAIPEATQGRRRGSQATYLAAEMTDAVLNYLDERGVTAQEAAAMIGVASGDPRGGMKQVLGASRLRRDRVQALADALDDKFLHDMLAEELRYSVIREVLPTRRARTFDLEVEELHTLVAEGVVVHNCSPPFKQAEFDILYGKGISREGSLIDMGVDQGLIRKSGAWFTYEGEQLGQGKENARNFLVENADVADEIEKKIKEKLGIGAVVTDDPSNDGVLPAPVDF
# YopH PTP inh – YopH tyrosine phosphatase inhibitors, primary screen, biochemical, fluorescence Ex485/Em525 | 140,000 tested, 0.16% active | AID 898, 2007 | YopH tyrosine phosphatase [Yersinia enterocolitica] | inhibition, %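 (about 10 µM by stock and volumes)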;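 active = inhibition of 50% or more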;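 note: controls were vehicle for no effect and minimum signal wells for full effect; inactives centre near -20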
# Arbovirus anti – antivirals against arbovirus infection, primary screen, cell-based, full library, 10K replicate subset. arbovirus infection cell-based antiviral screen. inhibition, % at 10 µM. 200,000 tested, 0.37% active;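 active = inhibition from about 30%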;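 note: bluetongue infection of BSR cells; cell survival read as ATP light after 72 h; 0% = infected wells without compound and 100% = uninfected wells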
# * hit, by the source's call; ? = inconclusive; . = not tested or not shown.
# Order of values – Mtb betalactam	Mtb H37Rv	RecA intein inh	YopH PTP inh	Arbovirus anti
Cc1ccc(CC2S/C(=N/c3ccccn3)NC2=O)cc1 (stereo not drawn)
    15.4	5.3%	2.2	-10.3	0.2
CNC(=S)N(CCCO)Cc1cc2cc3c(cc2[nH]c1=O)OCO3
    -2.2	.	-1.6	.	.
CC(C)Cc1nc(SCc2cccnc2)c2c(=O)n(C)c(=O)n(C)c2n1
    0.9	5.5%	5.6	.	-14.9
CCN(CC)S(=O)(=O)c1ccc(N2CCOCC2)c(NC(=O)CC(C)(C)C)c1
    -8.4	6.9%	0.5	.	.
O=C(Cn1cnc2ccccc2c1=O)NCc1ccco1
    0.9	-29.4%	1.2	-102.3	4.4
N#Cc1cc(C(=O)c2cc(Br)ccc2O)cn(C2CCCCC2)c1=O
    1.0	4.8%	3.1	17.8	-2.6
COc1cccc(C(=O)Cn2c(NCCCO)nc3ccccc32)c1
    -2.8	.	-6.1	.	.
O=C(O)C1CCCCC1C(=O)Nc1nc(-c2cccs2)cs1 (stereo not drawn)
    -7.0	-6.7%	2.0	-21.2	4.6
O=C(CS(=O)(=O)c1ccccc1)Nc1ncc([N+](=O)[O-])s1
    0.4	.	9.0	.	.
Cc1c(-c2nc(-c3ccc(C(C)(C)C)cc3)no2)n(C)oc1=O
    73.0	11.9%	6.2	.	.
CCC(C)c1ccc(N2C(=O)NC(=O)/C(=C/c3cccn3CCOc3ccc(C)cc3)C2=O)cc1 (stereo not drawn)
    32.2	0.4%	-7.5	-19.1	4.1
Cc1ccc(C)c(N2CN(Cc3ccco3)CNC2=S)c1
    -1.7	6.3%	-2.7	-12.0	1.5
COc1ccccc1OCCCC(=O)NCc1ccco1
    -0.2	-3.5%	-0.8	.	-1.6
Cc1ccc(-c2nnc(OCC3CCCO3)c3ccccc23)cc1 (stereo not drawn)
    11.8	5.0%	0.8	.	-7.1
O=S(=O)(Cc1ccccc1)N1CCN(c2ccccc2)CC1
    2.1	-3.6%	.	-5.5	-2.0
CCOC(=O)C1(CCOc2ccccc2)CCN(Cc2cccc3nonc23)CC1
    23.5	3.7%	3.8	.	-1.9
Cc1ccc(C(=O)OCC(=O)N(C)c2ccccc2)c(C)c1
    -0.1	.	3.3	.	.
COc1ccc(NC(=O)N2CCCC2C(=O)Nc2ccccc2)cc1 (stereo not drawn)
    0.4	-3.1%	-2.2	-1.4	-1.0
CCOc1ccc(/C=C2\SC(=S)N(NS(=O)(=O)c3ccccc3)C2=O)cc1OC
    1.4	-1.5%	3.7	.	.
COc1ccc(SCc2noc(C(=O)NCC3CCCO3)c2C(=O)O)cc1 (stereo not drawn)
    -1.1	-9.8%	0.8	-129.7	-0.7
CC(C)NC(=O)COC(=O)c1ccc(Cl)c(S(N)(=O)=O)c1
    -12.0	-2.5%	-1.0	.	12.9
COc1ccc(Cc2nnc(NC(=O)c3cccs3)s2)cc1
    -6.2	-13.7%	0.7	-10.7	11.8
CCn1cc(Cl)c(C(=O)Nc2ccc(OC)c(OC)c2)n1
    0.1	0.4%	1.5	.	4.6
COc1ccc(N2C(=O)CC(Sc3nc(C)cc(C)c3C#N)C2=O)cc1 (stereo not drawn)
    8.4	-0.6%	-0.8	-20.0	2.5
CC1CCN(C(=O)c2cc(N3C(=O)C4C5CCC(C5)C4C3=O)ccc2Cl)CC1 (stereo not drawn)
    2.1	-4.3%	-1.5	.	10.3
Cn1c(=O)c(C(=O)c2ccccc2)c(O)c2ccccc21
    -8.7	.	-1.3	.	.
CCCS(=O)(=O)c1nc(S(=O)(=O)c2ccc(C)cc2)c(NCCCn2ccnc2)s1
    -2.6	.	-2.3	.	.
COc1cccc(NC(=O)CN(C)C(=O)/C=C/c2cc(OC)ccc2OC)c1
    5.5	-2.5%	-53.2	-18.6	-6.7
CCOc1ccc(-c2cc(CCCC(=O)Nc3cc(OC)ccc3OC)no2)cc1
    9.1	9.6%	-6.0	-35.9	-1.7
Cc1cc(NC(=O)COC(=O)C2COc3ccccc3O2)no1 (stereo not drawn)
    -5.4	-7.8%	-1.8	-11.7	0.4
Cc1c(NC(=O)c2ccc(Br)s2)c(=O)n(-c2ccccc2)n1C
    -6.5	-6.3%	1.3	.	-1.3
CCOC(=O)c1c(C)[nH]c(C(=O)CSc2nc(C)cc(C)n2)c1C
    6.5	-5.3%	-0.2	-21.3	1.4
COc1ccc(Nc2ccc(S(=O)(=O)N3CCCCCC3)cc2[N+](=O)[O-])cc1
    8.8	6.2%	6.8	-21.8	-1.4
COc1ccc(CC2(CO)CCN(S(=O)(=O)c3cccc4cccnc34)CC2)cc1
    -7.2	.	-1.2	.	.
CC(C)C(C)(C#N)NC(=O)CN1C(=O)NC2(CCCc3ccccc32)C1=O (stereo not drawn)
    4.6	.	-0.7	.	.
COc1cc(C(=O)NNc2nc3cc4c(cc3s2)OCO4)cc(OC)c1OC
    -1.7	65.5%	-3.7	2.5	6.2
COc1ccc(OC)c(Nc2c3ccccc3nc3ccccc23)c1
    15.5	.	15.6	.	.
CCOC(=O)N1CCN(S(=O)(=O)N2CCCC(C(=O)NCCCN3CC(C)CC(C)C3)C2)CC1 (stereo not drawn)
    1.4	.	-1.2	.	.
CCOc1cc(CNCc2ccccn2)cc(Cl)c1OCC
    80.9	-0.1%	4.5	.	0.6
CCCCC(=O)Nc1ccc2c3c(cccc13)CC2
    98.6	35.4%	4.2	-30.0	-9.3
O=C(O)c1ccccc1/C=N/NC(=S)NC1CCCCC1
    -12.4	-3.3%	-3.2	.	.
CCOC(=O)CSc1ccc(S(=O)(=O)N(C)C2CCCCC2)cc1[N+](=O)[O-]
    10.1	-4.3%	5.8	-30.3	-2.3
CCOCC(=O)Nc1ccccc1C(=O)N1CCOCC1
    4.6	-4.9%	-3.0	.	7.8
Cc1c(C)c2ccc(OCC(=O)NC(Cc3ccc(Cl)cc3)C(=O)O)cc2oc1=O (stereo not drawn)
    -8.9	.	0.6	.	.
CC(=O)c1ccc(NS(=O)(=O)c2ccccc2)cc1
    -14.6	10.0%	-0.2	-15.6	-3.8
Cc1ccc(NC(=O)c2ccccc2)s1
    -12.0	1.0%	2.7	-24.2	-9.5
Cc1ccc(NC(=S)NCC2CCCO2)cc1C (stereo not drawn)
    -0.1	-5.7%	-0.8	-13.0	-1.8
C[N+](C)(C)CC(=O)Nc1ccc(Cl)cc1C(=O)c1ccccc1
    -0.4	3.1%	3.8	.	3.0
O=C(OCc1cn(Cc2ccccc2)nn1)c1ccccc1
    -10.2	14.9%	1.6	.	.
Cc1ccccc1NC(=S)NC(=O)c1cc(-c2ccccc2)nc2ccccc12
    98.2	45.8%	1.6	-27.2	15.1

# Following part.
# Order of values – Mtb betalactam	Mtb H37Rv	RecA intein inh	YopH PTP inh	Arbovirus anti
O=C(CN1CCc2ccccc21)NC(c1ccccc1)c1ccccc1
    -3.7	4.7%	1.3	-16.6	-3.6
COc1ccc(-n2c(SCC(=O)NCC3CCCO3)nc3c(c2=O)SCC3)cc1OC (stereo not drawn)
    -7.5	.	-2.0	.	.
Clc1cccc(Cl)c1COc1ccccn1
    14.9	-8.3%	-1.5	-41.3	-2.9
O=[N+]([O-])c1cccc(S(=O)(=O)[N-]c2nc3ccccc3nc2-n2cc[n+](Cc3ccccc3)c2)c1
    -4.8	5.0%	-1.6	.	.
COc1ccc(-c2noc(CNS(=O)(=O)c3ccc(NC(C)=O)cc3)n2)cc1OC
    0.3	.	-0.6	.	.
CCOCCCNC(=O)CN1C(=O)CSc2cc(S(=O)(=O)N3CCCCCC3)ccc21
    8.3	.	2.1	-20.6	8.1
CCCn1nnnc1SCC(=O)Nc1nnc(CC)s1
    99.3	69.5%	-1.7	-10.9	12.2
CCN1CCCC1CNC(=O)C1CCCN(S(=O)(=O)c2cccc3nsnc23)C1 (stereo not drawn)
    -8.6	.	-1.1	-48.2	0.0
C/C(=N\NC(=O)c1cccc(S(=O)(=O)N2CCCC2)c1)c1ccc(OCC(=O)N(C)C)cc1
    -11.2	.	-3.3	.	.
COc1cc(/C=N/NC(=O)c2cccnc2)ccc1OC(=O)c1cccc(Br)c1
    -22.1	.	-1.5	.	.
O=c1cc(Cl)c(-c2ccccc2)n[nH]1
    5.3	-4.0%	3.7	2.4	12.8
O=C(O)Cc1ccc(O)c(F)c1
    -1.7	-3.8%	0.7	-29.1	9.0
Cc1ccc(-c2nn(-c3ccccc3)cc2/C=N/NC(=O)c2ccncc2)o1
    -2.5	?	-13.7	.	1.6
C[C@@H]1C=C(C(=O)N2CCOCC2)O[C@H](OCc2ccc(CO)cc2)C1
    1.7	-7.8%	-0.8	.	1.9
CCN(CC)C(=S)SCc1csc(CC(=O)Nc2ccccc2C)n1
    4.7	.	2.7	.	.
CCOc1ccccc1C(=O)Nc1ccc2nc3n(c(=O)c2c1)CCCCC3
    19.7	.	0.5	.	.
C/C(=C\C(=O)c1ccc(C)cc1)NCc1ccc(F)cc1
    -7.0	1.7%	1.3	-39.0	.
Cc1ccccc1-n1nc(-c2cccnc2)cc1C(=O)NN
    -0.8	-5.8%	2.5	.	-2.7
Cc1cc(NC(=O)CC(C)C)c(=O)n(Cc2c(F)cccc2Cl)c1
    1.8	.	0.9	.	.
CC(Sc1nnc(CC(=O)Nc2ccccc2F)n1C)C(=O)Nc1nccs1 (stereo not drawn)
    -4.2	.	-1.6	.	.
CSc1ccc(S(=O)(=O)NCCOc2ccccc2C)cc1
    14.9	13.0%	.	-22.4	9.1
COc1ccc(/C=N/NC(=O)CCCOc2ccc(Cl)cc2Cl)cc1[N+](=O)[O-]
    -4.0	.	2.9	18.3	1.3
CCCC(=O)Nc1sc2c(c1C(=O)Nc1ccccn1)CCCC2
    -5.0	0.4%	9.2	.	-14.2
O/N=C/c1cc(Br)ccc1OCc1ccc(F)cc1
    -6.5	-8.0%	18.5	-37.7	.
CCOC(=O)N1CCN(C(=O)C(=O)NNC(=O)COc2ccc(Cl)c(C)c2)CC1
    -12.4	1.0%	0.3	-6.1	8.1
O=C(CN1CCN(c2ccccn2)CC1)Nc1ccccc1C(=O)Nc1ccccc1
    -5.0	.	2.4	.	.
CC(C)NS(=O)(=O)c1cc(C(=O)O)ccc1Cl
    2.2	6.8%	-1.0	-17.9	-0.8
Cn1c(=O)c2c(nc(SCC(=O)OCc3ccccc3)n2C)n(C)c1=O
    .	2.0%	5.4	-35.7	4.7
O=S(Cc1ccccc1)CC(O)(c1ccc(Cl)cc1)c1ccc(Cl)cc1 (stereo not drawn)
    10.4	0.8%	1.8	-9.5	-33.2
CCc1ccccc1NC(=O)NNC(=O)c1ccc2ccccc2c1O
    -5.4	.	-2.8	.	.
CC(=O)OC1OCCOC1NC(=S)NCc1ccco1 (stereo not drawn)
    5.2	-5.7%	-2.9	.	-1.0
Cc1ccc(S(=O)(=O)Nc2nnc(CC(C)(C)C)s2)cc1
    -6.0	.	0.0	.	.
CC(=O)c1sc(NC(=O)CCCOc2ccccc2C)nc1C
    1.0	-6.4%	-0.7	.	-28.9
COc1cc2c(cc1NC(=O)CN1CCN(S(=O)(=O)c3ccc(F)cc3)CC1)oc1ccccc12
    -5.6	-7.5%	-3.9	-39.6	-11.4
CCn1ccnc1C(O)c1ccccc1OC (stereo not drawn)
    -1.6	-4.6%	1.6	32.2	-1.9
CN(C)C(=S)Nc1ccc(S(=O)(=O)N2CCCCC2)cc1
    -4.0	0.1%	-1.4	.	.

# Copied from the results shown, 7 compounds:
# Order of values – Mtb betalactam	Mtb H37Rv	RecA intein inh	YopH PTP inh	Arbovirus anti
Cn1c(=O)c2c(nc(SCC(=O)OCc3ccccc3)n2C)n(C)c1=O
    .	2.0%	5.4	-35.7	4.7
O=S(Cc1ccccc1)CC(O)(c1ccc(Cl)cc1)c1ccc(Cl)cc1 (stereo not drawn)
    10.4	0.8%	1.8	-9.5	-33.2
CCc1ccccc1NC(=O)NNC(=O)c1ccc2ccccc2c1O
    -5.4	.	-2.8	.	.
CC(=O)OC1OCCOC1NC(=S)NCc1ccco1 (stereo not drawn)
    5.2	-5.7%	-2.9	.	-1.0
Cc1ccc(S(=O)(=O)Nc2nnc(CC(C)(C)C)s2)cc1
    -6.0	.	0.0	.	.
CC(=O)c1sc(NC(=O)CCCOc2ccccc2C)nc1C
    1.0	-6.4%	-0.7	.	-28.9
COc1cc2c(cc1NC(=O)CN1CCN(S(=O)(=O)c3ccc(F)cc3)CC1)oc1ccccc12
    -5.6	-7.5%	-3.9	-39.6	-11.4

# Only part of the results is shown; the hit share may differ from the screen's.
